VDR inh – Inhibitors of the vitamin D receptor (VDR): qHTS | Vitamin D3 receptor (Homo sapiens), P11473 | VDR-SRC2-3 peptide fluorescence polarization, 2 h | Potency, µM, for the others: max response, negative = inhibition, hits mostly inhibitors | hit rate 0.93% among 400,000 | AID 504847, 2011; active = well fitted inhibition curve with a large enough effect; inconclusive = small, poorly fitted or top-dose-only effect, or another doubt; inactive = no such curve, though single readings can be large or run the other way; also: series mostly up to about 120 µM
Target sequence (P11473 whole entry, looked up): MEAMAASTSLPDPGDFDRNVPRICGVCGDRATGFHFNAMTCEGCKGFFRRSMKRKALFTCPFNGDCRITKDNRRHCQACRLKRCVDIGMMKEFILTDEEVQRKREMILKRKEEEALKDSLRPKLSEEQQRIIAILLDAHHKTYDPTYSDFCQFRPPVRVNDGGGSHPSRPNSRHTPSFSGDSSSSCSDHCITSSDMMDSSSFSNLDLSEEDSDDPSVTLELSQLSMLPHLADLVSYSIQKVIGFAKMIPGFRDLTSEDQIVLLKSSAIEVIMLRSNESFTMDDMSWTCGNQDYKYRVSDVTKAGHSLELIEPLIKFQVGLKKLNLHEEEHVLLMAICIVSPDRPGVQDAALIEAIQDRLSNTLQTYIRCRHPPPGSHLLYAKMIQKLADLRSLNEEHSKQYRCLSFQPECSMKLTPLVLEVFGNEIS
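Reagent solutions, kept cold and dark, are dispensed first; compounds are then pinned in at 23 nl, plates briefly spun, and incubated 2 h at ambient temperature. Inhibition of VDR–SRC2-3 peptide binding is read by fluorescence polarization.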
Starred values were filed as active, the others as inactive; & = joins results of further samples. % is scaled to controls: 0 for no effect and ±100 for the full control effect; potency is read from the fitted curve at half-maximal effect.

Start of the listing, in advance (3 entries):
CCOC(=O)N1CCN(C(=O)c2ccc3c(=O)n(-c4ccc(OC)cc4)c(=S)[nH]c3c2)CC1 was read as VDR inh 13%.
CC1Cc2nc(SCC(=O)OCc3ccccc3)n(C)c(=O)c2S1 (centres undefined) was read as VDR inh -2%.
Screening O=C(COC(=O)c1ccc2ncsc2c1)NC(=O)c1ccccc1 returned VDR inh -2%.

This part in full, repeating the preview:
CCOC(=O)N1CCN(C(=O)c2ccc3c(=O)n(-c4ccc(OC)cc4)c(=S)[nH]c3c2)CC1 was read as VDR inh 13%.
CC1Cc2nc(SCC(=O)OCc3ccccc3)n(C)c(=O)c2S1 (centres undefined) was read as VDR inh -2%.
Screening O=C(COC(=O)c1ccc2ncsc2c1)NC(=O)c1ccccc1 returned VDR inh -2%.
CN(Cc1ncc[nH]1)Cc1cn(-c2ccccc2)nc1-c1ccc2c(c1)OCO2 was read as VDR inh 7%.
`CCCOc1ccc(C(=O)NCc2cccnc2)cc1` gave VDR inh 5%.
Screening O=C(c1csnn1)N1CCC2(CC1)CN(C(c1ccccc1)c1ccccc1)C2 returned VDR inh -5%.
For CCOC(=O)c1cccc(NC(=O)c2ncoc2-c2ccco2)c1 the results were VDR inh -1%.
Screening Cc1ccc(/C=C/C(=O)NCCCn2ccnc2)cc1 returned VDR inh 3%.
For Cc1ccccc1N=C(NOCc1ccccc1)c1nonc1N the results were VDR inh 12%.
For O=c1c2ccccc2c(C=Nc2ccccc2O)c(O)n1-c1nccs1 the results were VDR inh -6%.
Cc1cc(C)cc(C(=O)Nc2ccc(N3CCN(C(=O)c4ccco4)CC3)cc2)c1 was read as VDR inh -3%.
Screening COc1cccc(C2=NN(C(=O)c3cccs3)C(O)(C(F)(F)F)C2)c1 (centres undefined) returned VDR inh 8%.
`Cc1ccc(NC(=O)NCCCN2CCCC2=O)cc1` gave VDR inh 3%.
COC(=O)[C@]1(C)CCC[C@@]2(C)C3CC[C@@]4(C)C[C@]3(CCC21)CC(=O)N4Cc1ccc(OC)cc1 (some centres undefined) was read as VDR inh -3%.
`COc1ccc(CNC(=O)c2ccc(S(=O)(=O)NCc3ccco3)cc2)cc1` gave VDR inh 12%.
CC(=O)Nc1ccc(S(=O)(=O)N2CCSCC2)cc1 was read as VDR inh -7%.
Screening Nc1c(-c2cccc(Cl)c2)cnn1-c1cccc(C(F)(F)F)c1 returned VDR inh 3%.
Screening CCCCn1c(CCNC(=O)c2ccco2)nc2ccccc21 returned VDR inh -6%.
CC1(c2ccccc2Br)NC(=O)N(CC(=O)Nc2ccc(S(N)(=O)=O)cc2)C1=O (centres undefined) was read as VDR inh 14%.
Screening O=C(N1CCCCC1)C1(c2ccccc2)CCCCC1 returned VDR inh -6%.
For Oc1nc(-c2ccc(Cl)cc2)n2ccncc12 the results were VDR inh -18%.
Screening CCn1cc(C(=O)OCc2ccccc2)c(=O)c2ccc(C)nc21 returned VDR inh -3%.
O=C(CN1CCN(S(=O)(=O)c2ccc(Br)cc2)CC1)Nc1ccccc1F was read as VDR inh -16%.
O=[N+]([O-])c1cc2c(cc1C=Nc1ccccc1)OCO2 was read as VDR inh inconclusive.

Gathered by group: the entries above containing an NH in an aromatic ring.
CCOC(=O)N1CCN(C(=O)c2ccc3c(=O)n(-c4ccc(OC)cc4)c(=S)[nH]c3c2)CC1 was read as VDR inh 13%.
CN(Cc1ncc[nH]1)Cc1cn(-c2ccccc2)nc1-c1ccc2c(c1)OCO2 was read as VDR inh 7%.

More structures follow:
`CCOC(=O)N1CCC(NC(=O)CCS(=O)(=O)c2ccc3c(c2)CCN3C(=O)CC)CC1` gave VDR inh 0%.
For COc1ccc(-c2c(C)nn3c(N4CCN(c5ccccc5)CC4)cc(C)nc23)cc1OC the results were VDR inh -17%.
Cn1c(-c2ccccc2)cccc1=O was read as VDR inh 18%.
Screening CCOc1ccc(Cn2nnc(C(=O)NCc3ccc(OC)cc3)c2N)cc1 returned VDR inh -6%.
`COC(=O)c1cc(C(=O)N2CCc3ccccc32)cc([N+](=O)[O-])c1` gave VDR inh 14%.
`O=[N+]([O-])c1cccc(-c2n[nH]c(=S)n2-c2ccc(Br)cc2)c1` gave VDR inh -17%.
`Cn1c(N)c(N=O)c(=O)n(C)c1=S` gave VDR inh -17%.
`O=C(CCCN1C(=O)CSc2ncccc21)N1CCN(c2cccc(C(F)(F)F)c2)CC1` gave VDR inh -8%.
`CCN(c1ccccc1)c1cc2ccccc2c(=O)[nH]1` gave VDR inh inconclusive.
`CCC(CO)Oc1cc(NCc2ccccc2C(F)(F)F)c2ncn(C(C)C)c2c1` (centres undefined) gave VDR inh 0%.
For COC(C/C=C\[C@H](O)[C@H](C)OCc1ccccc1)OC the results were VDR inh -11%.
`Cc1ccc(OCCCN2C(=O)C(=O)c3cc(C)ccc32)cc1` gave VDR inh inconclusive.
COC(=O)c1cc(=O)n(Cc2ccc3c(c2)OCO3)c(=Nc2ccc(F)cc2)s1 was read as VDR inh 3%.
COc1ccc2oc(-c3ccc(C)c(NC(=O)Cc4ccc(Cl)cc4)c3)nc2c1 was read as VDR inh 4%.
For CC(C)(C)SCCNC(=O)Nc1ccccc1 the results were VDR inh 7%.
For COc1cc(/C=N/NC(=O)c2ccc(-n3cccc3)cc2)ccc1O the results were VDR inh -8%.
COc1ccc2c(c1)C(=O)[C@H](OC(=O)NCCOc1ccccc1)[C@@H](c1ccc(OC)c(Br)c1)O2 was read as VDR inh 1%.
For CCCCCCNc1nc(NCc2ccco2)nc(OCC)n1 the results were VDR inh 15%.
Screening O=C(NCCCN1CCN(CCCNC(=O)c2cccc([N+](=O)[O-])c2)CC1)c1cccc([N+](=O)[O-])c1 returned VDR inh -6%.
Screening CC1(C)Cc2c(sc(NC(=O)C(=O)N3CCOCC3)c2C#N)CO1 returned VDR inh inconclusive.
For CCc1nc2ccccc2n1CCCCOc1ccc(Cl)cc1 the results were VDR inh -4%.
`O=C(CN(Cc1ccc2c(c1)OCO2)C(=O)CNC(=O)c1ccco1)NC1CCCCC1` gave VDR inh -9%.
NC(=S)Nc1nc2ccccc2s1 was read as VDR inh -5%.
Screening O=C(CCc1nc2ccccc2c(=O)[nH]1)Nc1cc(C(F)(F)F)ccc1N1CCOCC1 returned VDR inh -13%.
For N#CC1=C2N=C(N)c3ccccc3N2C2=C(C(=O)CCC2)C1c1ccc(F)cc1 (centres undefined) the results were VDR inh 3%.
O=C1CC(c2c[nH]c3ccccc23)C(=O)N1 (centres undefined) was read as VDR inh 7%.
`COc1ccc(CNC(=O)COC(=O)/C=C/c2cccs2)cc1` gave VDR inh 4%.
C[C@@H]1CN(CCCn2c3ccccc3c3ccccc32)C[C@H](C)N1 was read as VDR inh 8%.
Cc1cc(NC(=O)COC(=O)C2CCN(S(=O)(=O)c3ccccc3)CC2)c([N+](=O)[O-])cc1C was read as VDR inh 0%.
Screening Cc1ccc(NC(=O)C2CCN(c3nc4ccccc4nc3C(F)(F)F)CC2)cc1F returned VDR inh 12%.
O=C(CSc1n[nH]c(=O)n1C1CC1)N1N=C(c2ccc(Cl)cc2)CC1c1ccco1 (centres undefined) was read as VDR inh 4%.
For O=C(Nc1cccc(Cl)c1)Nc1cc(S(=O)(=O)N2CCOCC2)ccc1N1CCCC1 the results were VDR inh -12%.
CCN=C(NCC)SC1CC(=O)N(c2ccc(OC)cc2)C1=O (centres undefined) was read as VDR inh 0%.
`O=C(O)/C=C\C(=O)Nc1cccc(C(=O)Nc2cccc(O)c2)c1` gave VDR inh 5%.
Screening COc1ccc(C(=O)/C=C/C(=O)N(CC(=O)NC2CCCCC2)Cc2ccc(F)cc2)c(O)c1 returned VDR inh 79µM*.
For COCCn1c(SCC(=O)Nc2cc(C)on2)nnc1C(C)C the results were VDR inh -20%.
For CC(C)(/C=N/O)/[N+]([O-])=C/c1ccccc1C(F)(F)F the results were VDR inh -5%.
Screening CN(CC(=O)Nc1ccc(N2CCOCC2)cc1)C(=O)c1ccc(O)c(Cl)c1 returned VDR inh -13%.
Screening CC(Oc1ccc(S(=O)(=O)N2CCCC2)cc1[N+](=O)[O-])C(=O)N(C)c1ccccc1 (centres undefined) returned VDR inh 5%.
`Cc1noc(C)c1NC(=O)Nc1cccc2c1O[C@@H](CN(C)Cc1ccc3c(c1)OCO3)[C@@H](C)CN([C@H](C)CO)C2=O` gave VDR inh 9%.
Screening Cc1ccc(CNC(=O)c2ccc(CS(=O)(=O)c3ccccc3)o2)cc1 returned VDR inh -16%.
NC(=O)c1nn(-c2ccccc2)c(=O)cc1O was read as VDR inh -16%.
`CC1(C)N=C(/C=N/O)CN1O` gave VDR inh -2%.
COc1ccccc1CN1CCSCC1 was read as VDR inh -8%.
COc1cccc(NS(=O)(=O)c2ccc3c(c2)NC(=O)C(C)C(=O)N3)c1 (centres undefined) was read as VDR inh -10%.
`Cc1ccccc1NC(=O)Cc1cn(C)c2ccccc12` gave VDR inh 6%.
For Cc1ccc(NC(=O)C2C(c3ccccc3)C2(Cl)Cl)c(C)c1 (centres undefined) the results were VDR inh inconclusive.
O=C(COC(=O)Cc1ccsc1)Nc1cccc(Cl)c1 was read as VDR inh 1%.
Screening O=C(Nc1cnn(Cc2ccc(F)cc2)c1)c1cc(-c2ccco2)on1 returned VDR inh 3%.
Screening COc1ccccc1-c1ccc2nnc(SCC(=O)N3CCCC3)n2n1 returned VDR inh 1%.
Screening C=CCNC(=O)C(C#N)c1nc2ccccc2nc1N1CCCCCC1 (centres undefined) returned VDR inh 6%.
For CC1(C)CC(=O)C=C(Nc2ccc(C(=O)O)c(O)c2)C1 the results were VDR inh -4%.
Screening COc1cc(/C=C2\OC(=O)c3c(OC)cccc32)ccc1O returned VDR inh 10%.
`O=[N+]([O-])c1ccc(C(=S)N2CCC(Cc3ccccc3)CC2)cc1` gave VDR inh -9%.
Screening CCc1ccc2c(c1)/C(=N/OC)C(=O)N2 returned VDR inh 6%.
For O=C(CC(=O)N/N=C/c1ccccc1)NCc1ccccc1 the results were VDR inh 8%.
Screening COc1ccc(C(=O)Nc2nnc(S(=O)(=O)N3CCOCC3)s2)cc1 returned VDR inh 19%&20%.
`O=C(C1CCC(CNS(=O)(=O)c2ccccc2)CC1)N1CCCCC1` (centres undefined) gave VDR inh 5%.
Screening Cc1cc(C)c(/C=C(\C#N)C(N)=S)c(C)c1 returned VDR inh -25%.
C[C@H]1CN([C@@H](C)CO)C(=O)c2cccc(NC(=O)Nc3ccc(C(F)(F)F)cc3)c2O[C@@H]1CN(C)S(=O)(=O)c1ccccc1 was read as VDR inh -6%.
For NS(=O)(=O)c1ccc(CCNC(=O)c2ccc(C(=O)c3ccccc3)cc2)cc1 the results were VDR inh -2%.
For Cc1ccc(/C=c2\sc3nc(-c4ccccc4Br)nn3c2=O)o1 the results were VDR inh 11%.
Cc1ccc(CN2C(=O)N/C(=C/c3cc(C)n(-c4ccccn4)c3C)C2=O)cc1 was read as VDR inh -11%.
Cc1ccc(C(=O)NNc2ncnc3ccccc23)cc1 was read as VDR inh 22%.
For FC(F)Sc1ccc(NC(=S)N2CCN(c3ccccn3)CC2)cc1 the results were VDR inh -17%.
Screening Cc1cccc(C)c1N1C(=O)CC(N(O)c2ccccc2)C1=O (centres undefined) returned VDR inh 1%.
Cc1ccc(NC(=S)N(CCCN2CCN(C)CC2)Cc2cccs2)cc1 was read as VDR inh -12%.
Fc1ccc(CSc2nnc(CN3CCOCC3)n2-c2ccccc2)c(Cl)c1 was read as VDR inh -1%.
Screening CCCC1=Nc2cc(C(=O)NCCCOC(C)C)ccc2Sc2ccccc21 returned VDR inh -7%.
For Cn1cc(SCC(=O)Nc2ccc3c(c2)OCO3)c2ccccc21 the results were VDR inh -17%.
For O=C(NCCCn1cccn1)C1CCC(=O)N(Cc2ccccc2F)C1 (centres undefined) the results were VDR inh 13%.
`O=C(CSc1nc(=O)[nH]c2c1CCC2)NCc1ccccc1` gave VDR inh 7%.

Reprinted from the part before: 6 entries, followed by the next part.
Cc1ccc(NC(=S)N(CCCN2CCN(C)CC2)Cc2cccs2)cc1 was read as VDR inh -12%.
Fc1ccc(CSc2nnc(CN3CCOCC3)n2-c2ccccc2)c(Cl)c1 was read as VDR inh -1%.
Screening CCCC1=Nc2cc(C(=O)NCCCOC(C)C)ccc2Sc2ccccc21 returned VDR inh -7%.
For Cn1cc(SCC(=O)Nc2ccc3c(c2)OCO3)c2ccccc21 the results were VDR inh -17%.
For O=C(NCCCn1cccn1)C1CCC(=O)N(Cc2ccccc2F)C1 (centres undefined) the results were VDR inh 13%.
`O=C(CSc1nc(=O)[nH]c2c1CCC2)NCc1ccccc1` gave VDR inh 7%.
O=C(c1cc2ccccc2o1)N1CCN(CCOc2ccccc2)CC1 was read as VDR inh -8%.
`O=C(NCc1cccc(Cl)c1)C1CCCO1` (centres undefined) gave VDR inh 1%.
COC(CNC(=O)c1coc2nc3ccccc3nc12)OC was read as VDR inh -16%.
For COCCCn1c(SCC(=O)OC2CCCCC2)nnc1-c1cccs1 the results were VDR inh 13%.
Screening Cc1cc(=O)n2c(-c3ccc(Cl)cc3)csc2n1 returned VDR inh 5%.
Oc1ccc(Br)cc1C1C=C(c2ccc3c(c2)OCO3)NC(c2ccc(Br)cc2)N1 (centres undefined) was read as VDR inh inconclusive.
`CCOc1cc(C(=O)N=c2sccn2C)cc(Br)c1OC` gave VDR inh 12%.
`CCCCN(CCCC)C(=S)N/N=C/c1c(C)[nH]n(-c2ccccc2)c1=O` gave VDR inh -4%.
For COC(=O)c1ccc(C)c(NC(=O)C2CC(=O)N(C3CCCC(C)C3C)C2)c1 (centres undefined) the results were VDR inh 5%.
CCC(O)C1CCN(C(=O)c2ccc(OC3CCN(Cc4ccccn4)CC3)cc2)CC1 (centres undefined) was read as VDR inh 20%.
Screening CN(Cc1ccccc1F)C(=O)C(Cc1ccccc1)NC(=O)c1ccccc1 (centres undefined) returned VDR inh 15%.

Screens as filed in PubChem BioAssay.

These rows are one share of the data; the hit share may differ from the screen's.
